Bioassay records (PubChem BioAssay)
KCNQ2 pot = potentiators of rat KCNQ2 potassium channel; Potassium voltage-gated channel subfamily KQT member 2 (Rattus norvegicus), O88943; CHO-K1 KCNQ2, FluxOR thallium flux fluorescence; stronger effect = higher value; B-score at 10 µM; hit rate 0.54% among 310,000;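 active = fluorescence ratio B-score at least 3 SD of library B-scores, with initial fluorescence B-score within 3 SD, cut at about 5.3 in these data; same plate scores as AID 2156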;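 also: B-score of peak minus minimum over baseline fluorescence ratio after K+ and Tl+ stimulus; positive B-score means potentiation of KCNQ2 with more thallium influx and brighter signal; only the inactives scoring about 0 or higher are listed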
Target sequence (O88943 whole entry, looked up): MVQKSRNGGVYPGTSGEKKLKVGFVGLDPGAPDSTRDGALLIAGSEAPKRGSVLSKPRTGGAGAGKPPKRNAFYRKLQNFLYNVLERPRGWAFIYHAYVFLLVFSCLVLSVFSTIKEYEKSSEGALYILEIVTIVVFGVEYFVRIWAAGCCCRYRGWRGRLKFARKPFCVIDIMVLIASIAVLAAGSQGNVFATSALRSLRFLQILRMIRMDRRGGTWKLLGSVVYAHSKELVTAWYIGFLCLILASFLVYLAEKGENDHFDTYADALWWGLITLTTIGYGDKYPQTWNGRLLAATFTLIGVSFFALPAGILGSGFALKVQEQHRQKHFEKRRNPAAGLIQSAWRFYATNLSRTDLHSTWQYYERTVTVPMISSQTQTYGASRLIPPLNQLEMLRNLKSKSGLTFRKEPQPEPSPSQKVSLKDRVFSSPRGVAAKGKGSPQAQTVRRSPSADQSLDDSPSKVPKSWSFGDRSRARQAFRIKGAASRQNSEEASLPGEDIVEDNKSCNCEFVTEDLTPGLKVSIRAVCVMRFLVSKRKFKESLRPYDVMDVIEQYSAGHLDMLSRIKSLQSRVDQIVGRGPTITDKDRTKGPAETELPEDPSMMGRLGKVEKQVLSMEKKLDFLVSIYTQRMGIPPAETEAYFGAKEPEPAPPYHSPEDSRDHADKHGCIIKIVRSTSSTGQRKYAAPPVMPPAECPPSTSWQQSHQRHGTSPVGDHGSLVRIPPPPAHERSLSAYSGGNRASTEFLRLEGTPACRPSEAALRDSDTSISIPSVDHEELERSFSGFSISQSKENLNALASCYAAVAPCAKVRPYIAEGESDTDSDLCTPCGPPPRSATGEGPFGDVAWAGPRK
KCNQ2 pot baseline = second read-out of KCNQ2 pot, no call of its own (marks repeat the call); B-score; compound at 10 µM; measured here: initial fluorescence intensity artifact check;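 brightness before thallium and not channel activity; 0 = typical well and far values either way flag optical interference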
An asterisk follows results filed as active. This is a subset; count on the stated rates, not on these rows.

KCNQ2 pot	KCNQ2 pot baseline	molecule
0.59	0.64	COc1ccc(C2=NN(CN3C(=O)C(=O)c4ccccc43)C(c3cccc([N+](=O)[O-])c3)C2)cc1 (configuration not stated)
0.34	0.27	CCN(CC)CCCN1C(=O)C(=O)/C(=C(/O)c2ccc(Cl)cc2)C1c1ccccn1 (configuration not stated)
0.01	1.5	CN(C(=O)Cn1c(Cl)nc2c1c(=O)n(C)c(=O)n2C)C1CCS(=O)(=O)C1 (configuration not stated)
0.69	-0.51	Cc1cc(N2CCN(Cc3nc(-c4ccc(F)cc4)oc3C)CC2)cc(C)n1
0.82	-0.1	CCOC(=O)c1sc(NC(=O)COc2ncnc3ccccc23)c(C(=O)OCC)c1C
0.83	0.15	O=C1COc2ccc(S(=O)(=O)N3CCN(c4ccccc4F)CC3)cc2N1
0.03	0.38	C=CCNC(=O)c1ccc2nc(Cc3ccc(OC)cc3)oc2c1
0.99	0.11	CC(C)(C)CC(=O)NC(=S)Nc1ccccc1C(F)(F)F
1.51	0.42	O=C(COc1ccccc1)Nc1nnc(S(=O)(=O)N2CCCCCC2)s1
1.28	-1.55	CNC(=S)N(C)c1ccccc1

Ordered by formula weight (low to high): part of the list above.
KCNQ2 pot	KCNQ2 pot baseline	molecule
1.28	-1.55	CNC(=S)N(C)c1ccccc1
0.83	0.15	O=C1COc2ccc(S(=O)(=O)N3CCN(c4ccccc4F)CC3)cc2N1
0.59	0.64	COc1ccc(C2=NN(CN3C(=O)C(=O)c4ccccc43)C(c3cccc([N+](=O)[O-])c3)C2)cc1 (configuration not stated)

Further records
KCNQ2 pot	KCNQ2 pot baseline	molecule
1.22	-0.04	O=C(Cc1ccc(Cl)cc1)Nc1ccc(NC(=O)c2ccccc2)cc1
4.98	-0.48	CSc1ccc(CN2C(=O)NC3(CCCCCC3)C2=O)cc1
0.27	0	COc1ccc(NC(=O)Nc2ccccc2SC)c(OC)c1
2.19	0.09	CC1CCN(C(=O)c2ccc3c(c2)NC(=O)/C(=C/c2ccccc2)S3)CC1
0.7	-0.89	CN(Cc1cc2cc(F)ccc2[nH]1)Cc1nc(-c2cnccn2)no1
1.48	1.12	COc1ccc(NS(=O)(=O)c2cccc(NC(=O)C3=NN(c4ccccc4)C(=O)CC3)c2)cc1
2.52	0.53	Nc1cccnc1Oc1ccc(F)cc1F
0.52	-0.45	CCOc1ccc(OCC)c(S(=O)(=O)NNC(=O)c2c(C)nc3ccccn23)c1
1.62	-0.01	COc1ccc(CCNC(=O)Cn2nnc(-c3cccs3)n2)cc1OC
0.01	-1.52	COC(=O)c1c(C)[nH]c(/C=N/Nc2ccccc2)c1C

3 compounds already listed, arranged by the number in KCNQ2 pot, lowest first:
Structure	KCNQ2 pot
COc1ccc(NC(=O)Nc2ccccc2SC)c(OC)c1	0.27
CCOc1ccc(OCC)c(S(=O)(=O)NNC(=O)c2c(C)nc3ccccn23)c1	0.52
Nc1cccnc1Oc1ccc(F)cc1F	2.52

(further entries)
KCNQ2 pot	KCNQ2 pot baseline	molecule
1.01	-0.51	CCCNC(=O)NC(=O)CN1C(=O)NC(C)(c2ccc(C)cc2)C1=O (configuration not stated)
1.48	-0.01	Cc1ccc(C)c2c1N(Cc1ccccc1)C(=O)C21OCCO1
0.41	1.25	CN(CCOc1ccccc1)C(=S)Nc1ccc(OC(F)F)cc1
1.19	-0.03	CCOC(=O)c1cc(NC(=O)C2CCCO2)cc(C(=O)OCC)c1 (configuration not stated)
0.52	0	CC(O)c1n(C)c(Cl)c[n+]1C (configuration not stated)
0.01	-1.83	CCCCc1c(O)nc(SCCN(C)C)n(-c2ccccc2)c1=O
0.24	0.1	CN(C)S(=O)(=O)c1cc(NC(=O)COC(=O)C2CSC3(C)CCC(=O)N23)ccc1Cl (configuration not stated)
1.78	1.26	Nc1ccc(S(=O)(=O)Nc2ccc(S(N)(=O)=O)cc2)cc1
0.07	-0.19	COc1cc(OC)nc(Oc2ccccc2/C=N/O)n1
0.37	0.63	Cc1c(S(=O)(=O)N2CCC(C)CC2)c(=O)n(C)c(=O)n1C

Record cards (already shown).
`CCCCc1c(O)nc(SCCN(C)C)n(-c2ccccc2)c1=O` is listed with KCNQ2 pot = 0.01; KCNQ2 pot baseline = -1.83
`COc1cc(OC)nc(Oc2ccccc2/C=N/O)n1` is listed with KCNQ2 pot = 0.07; KCNQ2 pot baseline = -0.19

(more compounds)
KCNQ2 pot	KCNQ2 pot baseline	molecule
0.31	0.07	CC(=NC1CCN(Cc2ccccc2)CC1)c1c(O)[nH]c(=O)[nH]c1=O
1.96	1.16	COc1ccc(Nc2nc3c(c(=O)n(C)c(=O)n3C)n2CCO)cc1
0.07	-0.64	CCC1=NC(c2ccc(OC)cc2OC)N(O)C1(C)C (configuration not stated)
0.01	0.15	Nn1c(SCC(=O)Nc2ccc3c(c2)OCO3)nnc1C(F)(F)F
2.29	-2.81	COc1cc(CNc2ncnc3c2[nH]c2ccc(C)cc23)cc(OC)c1
0.93	-0.73	COc1ccccc1N/C=C(\C#N)c1nc2ccccc2[nH]1
0.91	-0.01	Cc1ccc2ncnc(Nc3ccccc3)c2c1
1.4	-0.83	COc1ccc(N=Cc2cc(Cl)ccc2O)cc1Cl
0.69	-1.6	Cc1ccc(S(=O)(=O)N(C)c2ccc(NS(C)(=O)=O)cc2)cc1
0.75	0.57	COC(CNC(=O)C1CCN(S(=O)(=O)c2ccc3nc4c(c(C(=O)O)c3c2)CC(C)CC4)CC1)OC (configuration not stated)
8.22*	0.27*	CCn1c(SCc2ccccc2)nc2ccccc2c1=O
0.66	0.57	Cc1cc(C)n(-c2nnc(C)c(=O)[nH]2)n1
0.25	-0.63	O=C(NCc1ccncc1)c1nc(-c2cccs2)no1
0.99	0.6	COc1nc2ccc(C)cc2cc1-c1noc(-c2cccnc2)n1
0.1	-1.71	CCCc1nnc(SCC(=O)N2C(C)CCCC2C)n1CCCOC (configuration not stated)
0.32	-1.18	Cc1ccc(Sc2ccc(N)cn2)cc1
0.13	-0.05	CCOc1ccc(NC(=O)CN(C)C(=O)COc2cccc(CC)c2)cc1OCC
0.64	0.16	CN(Cc1ccccc1)C(=O)COC(=O)CCNC(=O)c1ccccc1Cl
5.4*	0.26*	Cn1c(=O)c2c(SCC(=O)c3ccccc3)nc(C3CC3)nc2n(C)c1=O
0.83	0.54	CCN(CC)c1ccc(/C=N/N(c2ccccc2)c2ccccc2)c(O)c1
0.46	2.3	O=c1c2nnn(-c3ccccc3)c2ncn1C/C=C/c1ccccc1
0.94	0.04	O=C(CNC(=O)c1cncc(Br)c1)Nc1ccc(F)c(F)c1F
0.92	0.04	NC(=O)CC(NC(=O)c1ccccc1)c1ccc(NC2CCCCC2)c([N+](=O)[O-])c1 (configuration not stated)
0.2	-0.31	CS(=O)(=O)N1CCC(C(=O)Nc2cccc(Cl)c2)CC1
0.48	0.23	COC(=O)c1ccc(C)c(NC(=O)CCSc2ccccc2)c1
0.23	-0.79	CC1CCCCN1CC(=O)Nc1sc2c(c1C#N)CCC2 (configuration not stated)
0.13	-1.83	O=C(Nc1nccs1)C(F)(F)C(F)(F)C(F)(F)C(=O)Nc1nccs1
0.07	-1.3	Cc1cccc(CSc2nnc(N)n2-c2ccccc2)c1
2.58	0.73	COc1ccc(NC(=O)CCCN2C(=O)C(c3ccccc3)Oc3cccnc32)cc1 (configuration not stated)
2.06	-1.89	Cc1nn(-c2ccccc2)nc1C(=O)NNC(=O)c1cccc2ccccc12
0.67	0.43	Cc1ccc(NC(=O)C2CCN(S(C)(=O)=O)CC2)cc1
0.18	0.99	CCOC(=O)N1CCN(S(=O)(=O)c2cc(OCC(=O)NC3CCCCC3)c(C)cc2Cl)CC1
0.45	-2.16	CN1CCN(c2ccc(-c3ccc4ccccc4n3)cc2)CC1
0.09	-1.54	O=C(O)CNC(=O)/C=C/c1c(Cl)cccc1Cl
0.77	1.93	CC(C)(Oc1ccc(Cl)cc1)C(=O)NCC1CCCO1 (configuration not stated)
2.05	-1.45	CCN1C(=O)/C(=C2/C=Cc3ccccc3N2CC)SC1=S
2.06	-0.09	COc1ccc(/C=N\NC(=O)C2CCCC2)cc1Br
1.79	0.46	O=C(CCc1ccc(S(=O)(=O)NC2CCCCC2)cc1)NCc1cccnc1
0.02	-3.15	COc1ccc(C(=O)NC2CCN(CC(=O)Nc3cccc(C)c3)CC2)cc1OC
0.86	-1.02	O=C(O)C(CCCCN1C(=O)C2C3C=CC(C3)C2C1=O)N1C(=O)C2C3C=CC(C3)C2C1=O (configuration not stated)
1.45	-0.02	O=C(C[n+]1cc(-c2ccccc2)n2c1CCC2)N1c2ccccc2Sc2ccccc21
0.49	1.7	COc1cccc(C(=O)N/N=C2\SCC(=O)N2Cc2ccc3c(c2)OCO3)c1
0.9	-0.91	Cc1nc(CN2CCOCC2)cc(=O)[nH]1
0.84	-0.01	O=C(COC(=O)/C=C/c1ccccc1)NCc1ccccc1Cl
1.18	0.23	NNc1nc2cccnc2n(CCNc2ncc(C(F)(F)F)cc2Cl)c1=O
0.37	0.02	Nc1nc2c([N+](=O)[O-])cccc2s1
0.41	0.01	CCc1ccc(S(=O)(=O)NC(CC(=O)O)c2ccccc2)cc1 (configuration not stated)
2.1	-0.32	NS(=O)(=O)c1ccc(NC(=S)NC(=O)c2cccs2)cc1
0.08	2.56	O=C(Nc1ccccc1)NN(C(=O)CCl)c1ccccc1
1.31	-0.21	CCCNC(=O)c1c(N)n(-c2ccc3c(c2)OCO3)c2nc3ccccc3nc12

Later entries.
KCNQ2 pot	KCNQ2 pot baseline	molecule
0.01	0.87	Cc1cccc[n+]1CC(=O)c1ccccc1
0.16	0.42	COc1ccccc1C(=O)Nc1ccc(NC(=O)c2ccco2)c(C)c1
1.23	1.44	CC(C)n1nc(CC(=O)O)c2ccccc2c1=O
0.05	0.1	COc1cc2c(cc1OC)CN(CC(=O)Nc1ccccc1C(=O)NCc1ccccc1)CC2
0.53	-0.25	O=C(Cc1cccs1)N/N=C/C=C\c1ccccc1[N+](=O)[O-]
0.98	0.01	COCCN(C(=O)c1snc(C(N)=O)c1N)C(C(=O)NC1CCCCC1)c1cc(OC)c(OC)c(OC)c1 (configuration not stated)
0.01	1.61	CSc1ncccc1C(=O)OCC(=O)NC(C)C
1.24	-0.63	NNC(=O)C1CCN(S(=O)(=O)c2ccc(Cl)cc2)CC1
0.67	-0.76	CC(C)(C)c1ccc(C(=O)NCC(=O)O)cc1
1.33	0.56	S=c1[nH]nc(-c2ccc(Cl)cc2Cl)n1-c1ccc(Cl)cc1

Part of the list above, reformatted:
compound	KCNQ2 pot	KCNQ2 pot baseline
COCCN(C(=O)c1snc(C(N)=O)c1N)C(C(=O)NC1CCCCC1)c1cc(OC)c(OC)c(OC)c1 (configuration not stated)	0.98	0.01
CSc1ncccc1C(=O)OCC(=O)NC(C)C	0.01	1.61

(cont.)
KCNQ2 pot	KCNQ2 pot baseline	molecule
0.06	-1.08	CC1(C)Cc2c(sc3nc(SCC(=O)O)nc(N)c23)CO1
1.05	-1.18	COc1ccc(OC)c(NC(=O)C2CCCN(S(=O)(=O)c3ccc(-n4cnnn4)cc3)C2)c1 (configuration not stated)
2.45	1.17	O=C1CCc2cc(S(=O)(=O)NC(Cc3ccccc3)C(=O)NC3CCCC3)ccc2N1 (configuration not stated)
0.12	-0.08	Cc1ccc(NC(=O)N2CCCC(C(=O)O)C2)cc1 (configuration not stated)
1.13	-0.73	Cc1ccccc1NC(=O)OCc1ccccc1
0.71	-0.44	Cc1ccc(/C([O-])=C(/C(=S)NCc2ccco2)[n+]2ccccc2)cc1
0.25	0.15	Cc1ccc(CNC(=O)CCC2CCCN(Cc3cc4ccccc4o3)C2)o1 (configuration not stated)
0.43	0.09	COc1cccc(C(=O)N(CN2CCCC2=O)c2cccc(Cl)c2)c1
1.09	-1.42	COC(=O)Nc1ccc2ncn(C)c(=O)c2c1
2.09	-0.29	CCCCn1c(=O)[nH]c(=O)c2c1nc(Cn1ncc(Cl)c(Cl)c1=O)n2CCC
2.26	-0.22	CC(=O)Nc1ccc(NC(=O)CSc2nnc(-c3cccnc3)o2)cc1
0.83	1.81	COC(=O)C(C)NC(=O)c1ccc(C(C)(C)C)cc1 (configuration not stated)
2.09	-0.91	COc1cccc(NC(=O)Cn2cnc3c(oc4nc5c(cc43)CCCC5)c2=O)c1
2.8	-1.95	CCOc1ccccc1CNC(=O)CNC(=O)c1cccs1
1.04	-1.54	Cc1ccc(S(=O)(=O)N2CCN(C(=O)COC(=O)CNC(=O)c3ccc(Cl)cc3Cl)CC2)cc1
1.41	-1.57	C#CCNC(=O)C1=C[C@H](c2coc3ccccc3c2=O)C[C@H](OCc2ccc(CO)cc2)O1
0.03	0.27	COCCn1c(N/N=C(C)/C=C/c2ccccc2)nc2c1c(=O)[nH]c(=O)n2C
1.34	-1.19	O=C(CNC(=O)c1sc2ccccc2c1Cl)Nc1ccccc1F
0.22	-2.58	NS(=O)(=O)c1ccc(NC(=O)NC2CCCCC2)cc1
0.07	0.39	CCOC(=O)C1(CC2CCCCO2)CCN(Cc2cccnc2)CC1 (configuration not stated)
0.78	0.88	CCOC(=O)c1c(NC(=O)CSc2nc3nc(C)cc(C)n3n2)sc(CC)c1C
1.03	1.39	O=C(NC(=S)N1CCN(C(c2ccccc2)c2ccccc2)CC1)c1ccc(S(=O)(=O)N2CCOCC2)cc1
2.02	0.33	Cc1cc(C)nc(SCc2nnc(SCC(=O)N3CCOCC3)o2)n1
0.83	-0.88	CCOC(=O)c1cnn(C(=O)c2ccccc2)c1N
0.91	0.2	COc1ccccc1CNC(=O)C1CCC(=O)N(CCCc2ccccc2)C1 (configuration not stated)
0.67	2.15	Cc1ccc(OCC(=O)NCCNC(=O)c2cnccn2)cc1C
1.05	-1.76	Cc1ccsc1C(=O)N1CCCC(CO)(Cc2ccccc2F)C1 (configuration not stated)
0.56	-0.01	COc1ccc(C(C(=O)OCCN(C)C)c2ccccc2)cc1 (configuration not stated)
9.81*	0.05*	COc1ccc(NC(=O)C2CC3CCC2C3)c(OC)c1 (configuration not stated)
